Source: PubChem
Biofilm kill mix: mixtures killing C. albicans biofilm. actives 0.02% (n = 120,000). inhibition, % at 7.6 µM. AID 1242. C. albicans biofilm persisters + clotrimazole, fluorescence viability; primary screen in compound mixtures of four per well;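 active means inhibition above 30.3% in the primary screen of four-compound pools, then above 30% when the compound was retested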;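 further: compounds exposed to preformed 24 h biofilms for 48 h; the number belongs to the whole pool; some results filed as inactive read as strong as hits; inactives centre near 12; 0% = biofilm with clotrimazole alone and 100% = kill control; retested singly at about 60 µM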
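Assay system: C. albicans biofilms / Medium: RPMI/MOPS medium, pH 7.0 / Schedule: biofilm formation 24 h, compound exposure 48 h, 37 °C / Measured by: Alamar Blue fluorescence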
The depositor's hits bear a star. Only part of the results is shown; the hit share may differ from the screen's.

The first 2 records (preview)
SMILES | Biofilm kill mix
COc1cccc(C(=O)Nc2cccc(C(=O)NCC(C)C)c2)c1 | 16
COC(C(=O)Nc1ccc(F)cc1)c1ccccc1 (stereo unspecified) | 22

The whole of this part, repeating the preview:
SMILES | Biofilm kill mix
COc1cccc(C(=O)Nc2cccc(C(=O)NCC(C)C)c2)c1 | 16
COC(C(=O)Nc1ccc(F)cc1)c1ccccc1 (stereo unspecified) | 22
COc1cc(C(=O)NC2CCCc3ccccc32)ccc1OCC(=O)Nc1ccc(F)cc1 (stereo unspecified) | 6
CCN(CC)CCCNC(=S)N(Cc1cccnc1)Cc1cc2cc(C)cc(C)c2[nH]c1=O | 16
NC(=O)N/N=C/c1cn(CC(=O)Nc2ccc(F)cc2)c2ccccc12 | 14
Cn1c(O)c(N=NC(=O)c2cccc(S(=O)(=O)N3CCCCC3)c2)c2ccccc21 | 8
COc1ccc(-c2[nH]ncc2CN2CCCO2)cc1F | 5
O=C(Cc1cccc(C(F)(F)F)c1)NCc1cccc(Cl)c1 | 11
CN(C)c1ccc(NC(=O)c2cccc(C(=O)Nc3ccc(N(C)C)cc3)n2)cc1 | 14
NC(N)=NC(=O)c1nc(Cl)c(N)nc1N | 16
N/C(=N\N=C\c1ccc(O)cc1)c1nonc1N | 8
CN1CCN(CC(=O)Nc2c(C#N)cnn2-c2ccccc2)CC1 | 18
Cc1occc1C(=O)N/N=C/C1=C(N2CCOCC2)C(=C\c2ccc(Cl)cc2)/CC1 | 7
Cc1ccc2nc(NC3=NC(CC(=O)O)C(=O)N3)nc(C)c2c1 (stereo unspecified) | 15
O=C(Cn1cnc2ccccc2c1=O)c1ccc(Cl)cc1 | 12
Cc1cccc(C2C3=C(Nc4[nH]n(-c5ccccc5)c(=O)c42)c2ccccc2C3=O)c1 (stereo unspecified) | 10
COc1ccc(CCn2c(SCCN3CCCCC3)nc3ccccc3c2=O)cc1OC | 23
COCC(=O)N(CCN(C)C)Cc1cc2cc3c(cc2nc1Cl)OCO3 | 22
CCOC(=O)CSc1nc2cccnc2n1C | 6
Cc1ccc(N(CC(=O)NC(C)(C)C)C(=O)CNC(=O)c2cccs2)c(C)c1 | 11
COc1ccccc1CNC(=O)C1(NC(=O)Nc2ccc(C)cc2)CCCCC1 | 20
CC(C)c1ccc(NC(=O)CSc2n[nH]c(=O)n2-c2ccc3c(c2)OCCO3)cc1 | -1
CC1(C2CC(C(F)(F)F)n3nc(C(=O)O)cc3N2)CC1 (stereo unspecified) | 20
Nc1nonc1NC(=O)NN=C1CCCCC1 | 8
CCCNC(=O)OC[C@H]1O[C@H](CCO/N=C/c2ccc(C(=O)N3[C@H](c4ccc(C)cc4)[C@@H](C)CC[C@H]3C(=O)OC)cc2)C=C[C@@H]1Oc1ccc(OC)cc1 | 6
CC(C)n1c(O)c(/C=C2\C=NN=C2c2ccccc2)sc1=S | 6
CNc1ccc(Br)cc(C(=O)/C=C/c2cccc(OC)c2OC)c1=O | 6
N#Cc1c(-c2ccccc2)nc(N2CCOCC2)[nH]c1=O | 9
COC(=O)c1cc(=O)n(-c2ccccc2)c(=Nc2ccccc2)s1 | 12
O=C(/C=C/c1ccc(Cl)cc1)Nc1ccc(S(=O)(=O)Nc2ncccn2)cc1 | 14
O=S(=O)(Nc1cccc(S(=O)(=O)N2CCOCC2)c1)c1ccc(Cl)s1 | 5
CCOc1ccc2c(c1)-c1c(ssc1=S)C(C)(C)N2C(=O)CSC1=NCCS1 | -2
CC1(C)C(C=C(Cl)Cl)C1C(=O)N(Cc1ccc(Cl)cc1)C1CCS(=O)(=O)C1 (stereo unspecified) | 17
CC(=O)c1cc2c(cc1NS(=O)(=O)c1ccccc1F)OCO2 | 11
C[C@@H]1CN(C(=O)c2nc3ccc(Cl)cn3c2CN[C@H]2CCCCNC2=O)C[C@H](C)O1 | 5
CC(Cc1ccccc1)C(=O)N(C)Cc1ccccc1 (stereo unspecified) | 15
COc1ccc(Cn2nnnc2CN2CCN(c3ccc(OC)cc3)CC2)cc1 | 14
CC(=O)Nc1cccc(/C(C)=N/NC(=O)c2cccc(S(=O)(=O)N3CCOCC3)c2)c1 | 9
Cc1ccc2[nH]c(C)c(CCNC(=O)c3c(N)no[n+]3[O-])c2c1 | 11
S=C(N=Nc1ccccc1)NNc1ccccc1 | 6

Five structures already listed, ordered by molar mass, falling.
SMILES | Biofilm kill mix
CC1(C)C(C=C(Cl)Cl)C1C(=O)N(Cc1ccc(Cl)cc1)C1CCS(=O)(=O)C1 (stereo unspecified) | 17
C[C@@H]1CN(C(=O)c2nc3ccc(Cl)cn3c2CN[C@H]2CCCCNC2=O)C[C@H](C)O1 | 5
Cc1ccc2[nH]c(C)c(CCNC(=O)c3c(N)no[n+]3[O-])c2c1 | 11
CC(Cc1ccccc1)C(=O)N(C)Cc1ccccc1 (stereo unspecified) | 15
Nc1nonc1NC(=O)NN=C1CCCCC1 | 8

Later entries:
SMILES | Biofilm kill mix
O=C(O)CCCn1c(=S)[nH]c2c(sc3ccc([N+](=O)[O-])cc32)c1=O | -3
CCc1cc2c(SCc3nc4sc(C(C)=O)c(C)c4c(=O)[nH]3)ncnc2s1 | 17
CSc1c2c(nc3ncnn13)CCC2 | 17
CCn1c(SCC(=O)N2CCN(c3cccc(Cl)c3)CC2)nc2ccccc2c1=O | 15
CCCCCCCCSc1nnc(/N=C/N(C)C)s1 | 9
CC1=NN(c2ccccc2)C(=O)C1=C(C)C | 13
N/C(CCS(=O)(=O)c1ccc(Cl)cc1)=N\OC(=O)c1ccc(Cl)cc1 | 23
Cc1cc(C(=O)Nc2ccc(C)c(S(=O)(=O)N3CCOCC3)c2)c(C)o1 | 11
CCOc1ccccc1NC(=S)N(CCN(C)C)C(C)c1ccncc1 (stereo unspecified) | 22
COc1cccc(N/C(N)=N/c2nc(C(F)(F)F)cc(C(F)(F)F)n2)c1 | 0
CCC1CCc2c(n(C)c3ccccc3c2=O)O1 (stereo unspecified) | 16
CN1CCCC2(CCCN(Cc3nc(Cc4cccc(C(F)(F)F)c4)no3)C2)C1 (stereo unspecified) | -1
COc1ccc(OCC(N)=O)cc1 | 1
COc1ccc(CNCC(=O)Nc2cc(C)nn2-c2nc(C)cc(C)n2)cc1OC | 25
COCCn1c(SCC(=O)Nc2nc3ccccc3s2)nnc1-c1ccoc1C | 13
NS(=O)(=O)c1cccc(NC(=S)NC(=O)C23CC4CC(CC(C4)C2)C3)c1 | 9
CCOCCCn1c(=S)[nH]c2cc(C(=O)N3CCC(C(N)=O)(N4CCCCC4)CC3)ccc2c1=O | 16
Cc1cccc2c(CCNC(=O)c3ccc([N+](=O)[O-])cc3)c[nH]c12 | 6
CN1CCOC(=O)/C1=N/Nc1cc(Cl)ccc1Cl | 11
O=C(O)CCC(=O)N1N=C(c2ccco2)CC1c1cccs1 (stereo unspecified) | 1
CCOC(=O)c1c(-c2ccccc2)csc1NC(=S)N(CC)CC | 10
COc1cc(/C=C/C(=O)Nc2ccc(C(C)=O)cc2)cc(OC)c1OC | -8
COc1ccc(N2C(=O)C3ON(C4SC(=S)N(C)C4(C)C)C(c4ccc(Cl)cc4)C3C2=O)cc1 (stereo unspecified) | 17
N=c1c(-c2nc3ccccc3[nH]2)cc(C(=O)c2cccs2)nn1-c1ccccc1 | 6
COc1cc(/C=N/NC(=O)c2ccc(O)cc2)ccc1Oc1ccc([N+](=O)[O-])cn1 | 7
CCOc1ccc(NS(=O)(=O)c2ccc3c(c2)N(C(C)=O)CC3)cc1 | 56
C/C(=N/NC(=O)c1ccc(Br)o1)c1ccc(C)o1 | 3
O=C(Cc1ccccc1)c1c[nH]c(C(=O)NCc2ccncc2)c1 | 7
OC(CNC1CCCc2ccccc21)COc1ccc2ccccc2c1 (stereo unspecified) | 8
CCOC(=O)C1CCCN(C(=O)c2ccccc2[N+](=O)[O-])C1 (stereo unspecified) | 12
COc1ccc(N(CC(=O)N/N=C/c2ccco2)S(=O)(=O)c2ccccc2)cc1Cl | 38
NC1=NC(c2ccc(Cl)cc2)N(c2ccc(S(N)(=O)=O)cc2)C(N)=N1 (stereo unspecified) | 17
CCC(O)(C#CCN1CCCCC1)CC | 6
CN(C)CCCN(C(=O)c1ccco1)c1nc2c(F)cccc2s1 | -4
CC1CC(C)CN(S(=O)(=O)c2ccc(C(=O)N(c3ccccn3)C3CCCCC3)cc2)C1 (stereo unspecified) | 12
COc1ccccc1CNC(=O)c1cc2c(=O)[nH]c3ccccc3c2n1C | 8
O=S(Cc1ccc(Cl)cc1)c1ncc(CO)n1Cc1ccccc1 (stereo unspecified) | 12
CC(NC(=O)c1cccc(Br)c1)c1ccccc1 (stereo unspecified) | 8
C/C(CCS(=O)(=O)c1ccccc1)=N/O | 16
CCC(/C=C1\Sc2ccc(OC)cc2N1CCO)=C\c1sc2ccc(OC)cc2[n+]1CCO | 16

A few values from the entries so far:
In Biofilm kill mix, Cc1ccc2[nH]c(C)c(CCNC(=O)c3c(N)no[n+]3[O-])c2c1 is entered as 11
In Biofilm kill mix, COC(C(=O)Nc1ccc(F)cc1)c1ccccc1 (stereo unspecified) is entered as 22
In Biofilm kill mix, COc1cccc(C(=O)Nc2cccc(C(=O)NCC(C)C)c2)c1 is entered as 16
In Biofilm kill mix, O=C(Cc1cccc(C(F)(F)F)c1)NCc1cccc(Cl)c1 is entered as 11

(further entries)
SMILES | Biofilm kill mix
COc1cc(OC)cc(C(=O)NC2CCN(CC(=O)Nc3cccc4ccccc34)CC2)c1 | 8
c1ccc(-c2ncc(-c3ccn[nH]3)s2)cc1 | 11
NC(=S)NN=C1c2cc(S(=O)(=O)N3CCOCC3)ccc2-c2ccc(S(=O)(=O)N3CCOCC3)cc21 | 20
COc1ccc(CNC(=O)C2CCC(CNc3c(N4CCCCC4)c(=O)c3=O)CC2)cc1 (stereo unspecified) | 13
CCN(CC)CCNC(=O)NC(=O)c1ccc(Cl)cc1 | 10
S=c1nc2ccccc2c2nc(-c3cccnc3)[nH]n12 | 27
Cc1cc(C)n2c(SCC(=O)N(C)C3CCCCC3)nnc2n1 | 13
CN=C1SC(CC(=O)Nc2ccc(F)cc2F)C(=O)N1/N=C(\C)c1cccc(OCC(=O)O)c1 (stereo unspecified) | 17
COc1ccc(CN(C)C(C)C(=O)Nc2ccc(S(=O)(=O)N3CCCC3)cc2)c(OC)c1OC (stereo unspecified) | 18
COCCNc1c(-c2cc3ccc(C)c(C)c3[nH]c2=O)nc2ccccn12 | 30
O=C(O)CSc1nc(-c2cccs2)cc(C(F)(F)F)n1 | 11
O=C(CN1CCCC1)Nc1cc(F)ccc1F | 18
Cc1ccc(S(=O)(=O)N2CCCC(C(=O)NCCC(C)C)C2)cc1 (stereo unspecified) | 25
Cc1nc(Nc2nc3ccccc3o2)nc(C)c1C | 11
N#Cc1ccc(S(=O)(=O)N2CCCN(c3ccc(C(F)(F)F)cn3)CC2)cc1 | 1
Cc1ccc(N=C2NC(=O)/C(=C/C=C/c3ccco3)S2)cc1C | 9
CCOc1cc(CNC(CC)CO)ccc1OCC(=O)Nc1cccc(C(F)(F)F)c1 (stereo unspecified) | 15
CCOC(=O)c1ccc(-n2c(CN3CCC(C(N)=O)CC3)nc3ccc([N+](=O)[O-])cc3c2=O)cc1 | 13
Oc1ccc(Nc2nc(-c3cccs3)cs2)cc1 | 8
COc1cccc(-c2csc(N3CCN(C(=O)Nc4ccccc4Cl)CC3)n2)c1 | 24

Reformatted tab-delimited: 5 of the compounds above
molecule	Biofilm kill mix
O=C(CN1CCCC1)Nc1cc(F)ccc1F	18
CN=C1SC(CC(=O)Nc2ccc(F)cc2F)C(=O)N1/N=C(\C)c1cccc(OCC(=O)O)c1 (stereo unspecified)	17
c1ccc(-c2ncc(-c3ccn[nH]3)s2)cc1	11
Cc1cc(C)n2c(SCC(=O)N(C)C3CCCCC3)nnc2n1	13
COc1cccc(-c2csc(N3CCN(C(=O)Nc4ccccc4Cl)CC3)n2)c1	24

Continuation:
SMILES | Biofilm kill mix
CCOC(=O)C1=NN(c2ccccc2C)C2=NC(C)=C(C(=O)OC)C(c3cccs3)N12 (stereo unspecified) | 12
Cc1cccc(NC(=S)N2CCC(O)CC2)c1C | 8
Cc1nn(CC(=O)NCc2ccc(C(=O)O)cc2)c(C)c1[N+](=O)[O-] | 20
OC(COC(c1ccc(Cl)cc1)c1ccc(Cl)cc1)CN1CCN(c2ccccn2)CC1 (stereo unspecified) | 16
Cc1ccccc1C(=O)NCCc1nnc(SCC(=O)Nc2nc(-c3ccccc3)cs2)n1C | -5
Cc1cccc(C)c1N1C(=O)c2cccc([N+](=O)[O-])c2C1=O | 5
O=C(/C=C/c1ccccc1)NNC1=NS(=O)(=O)c2ccccc21 | 25
CS(=O)(=O)c1ccc(Cl)c(NC(=O)COC(=O)c2ccc(F)cc2Cl)c1 | 8
CC(C)OCCCNc1ncc2c(n1)CC(c1cccs1)CC2=O (stereo unspecified) | 9
CN(C)S(=O)(=O)c1cccc(NC(=O)COC(=O)/C=C/c2ccc3c(c2)OCO3)c1 | 8
Cn1c(=O)c2c(SCC(=O)N3CCN(c4ccccc4)CC3)nc(C3CC3)nc2n(C)c1=O | 19
COc1ccc(NC(=O)c2onc(C)c2Cl)cc1 | 14
O=C(CSc1cccc[n+]1[O-])Nc1c(Br)cc([N+](=O)[O-])cc1Br | 18
Cc1cc(C(=O)Nn2c(-c3ccncc3)nc3ccccc3c2=O)ccc1[N+](=O)[O-] | 28
Cc1cc(C(=O)COc2ccccc2C(N)=O)c(C)n1C1CC1 | -2
COc1ccc(CCN2C(=O)NC(NC(=O)CCc3ccccc3)(C(F)(F)F)C2=O)cc1OC (stereo unspecified) | 8
Cc1ccc(-n2nnc(-c3nccs3)n2)cc1 | 18
COc1ccc(NC(=O)CC2SC(=NCC3CCCO3)NC2=O)cc1 (stereo unspecified) | 11
CCS(=O)(=O)N1N=C(c2cccc(NS(C)(=O)=O)c2)CC1c1ccccc1 (stereo unspecified) | 12
COc1ccc(CCNC(=O)CCCNC(=O)Cn2cnc3sc(C)c(C)c3c2=O)cc1OC | 14
Cc1occc1C(=O)N/N=C/c1ccc(OCc2ccccc2)cc1 | 18
CCOC(=O)N1CCN(c2cc(=O)n(C)c(=O)n2C)CC1 | 29
O=C1c2cccc3cccc(c23)N1Cc1ccc(F)cc1 | 10
